NPYLR7 ag = mosquito NPYLR7 agonism. hit rate 0.15% among 270,000. activation, % at 10 µM. HEK293T NPYLR7/Galpha15, GCaMP6s calcium fluorescence; in the data active means activation above about 40%;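 further: 0% = vehicle and 100% = reference agonist at the receptor; some compounds past the cut are filed as inactive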
NPYLR7 ag max-min = also measured in NPYLR7 ag; calls as there; activation, %; measured here: Max-Min RFU normalised activation; some inactives read as strong as hits;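 span of the calcium signal over five minutes; 0% = vehicle and 100% = native peptide agonist; compound fluorescence can raise it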
* = called active by the depositor. Some of the compounds tested; rates above refer to the full screens.

SMILES | NPYLR7 ag | NPYLR7 ag max-min
C=CCNC(=O)O[C@@H]1CC[C@]2(C)C(CC[C@@H](O)[C@H]2CC(=O)NCc2cc(F)cc(F)c2)[C@]1(C)CO (stereo partly specified) | -10 | -14
COc1cccc(C(=O)Nc2c(C)nc3c(C)cccn3c2=O)c1OC | 6 | 1
COc1cc(NCCc2csc(-c3ccncc3)n2)ncn1 | -1 | -1
CCc1cc(C(=O)NC2CC(=O)N(C3CC3c3ccccc3)C2)sc1C (stereo unspecified) | 2 | 1
Cc1ccc(F)c(S(=O)(=O)NC(=O)C2(C)CCN2C(=O)Cc2ccc(Cl)cc2Cl)c1 (stereo unspecified) | 2 | -1
COc1ccc(OCC(=O)NCCc2ccc(C(F)(F)F)cc2)cc1 | 0 | 7
CCCOc1cc(S(=O)(=O)N2CCN(CCO)CC2)ccc1Br | -5 | -6
O=C(NC1CCN(c2ccccc2C(=O)N2CCN(c3ccccn3)CC2)CC1)c1cccc(F)c1 | 2 | 13
CC(C)=CCN1CCN(Cc2ccnc3ccccc23)CC1CCO (stereo unspecified) | 2 | -1
Clc1cc(CSc2nnc(-c3ccccc3)o2)cc2c1OCCO2 | -5 | -5
COCCCn1cc(C(=O)NCc2cccs2)c2nn(-c3ccccc3)c(=O)c-2c1 | 16 | 13
CC(C)CC1NC(=O)C(CCCN)NC(=O)C(C(C)C)NC(=O)C2CCCN2C(=O)C(Cc2ccccc2)NC(=O)C(CC(C)C)NC(=O)C(CCCN)NC(=O)C(C(C)C)NC(=O)C2CCCN2C(=O)C(Cc2ccccc2)NC1=O (stereo unspecified) | -7 | -12
CNC(=O)CSc1nnc(N2CCN(C(=O)Cc3noc4ccccc34)CC2)s1 | -14 | -15
Cc1cc(N(C)Cc2cnn(C(C)C)c2)nc(-c2cccnc2)n1 | -6 | -6
Cc1ccc(CN(Cc2ccc3c(c2)OCO3)C(=O)CN(C(=O)Nc2ccc(C(C)C)cc2)C(C)C)o1 | 11 | 10
CCn1c(SCC(=O)NNC(=O)c2cccs2)nc2ccccc21 | -7 | -11
COc1ccc(-c2cc(C(F)(F)F)n3nc(C(=O)NCc4ccco4)cc3n2)cc1 | 1 | 0
COc1ccc(NC(=O)N(CC(=O)Nc2cc(-c3ccccc3)nn2-c2ccc(C)cc2C)CC(C)C)c(OC)c1 | -3 | -1
Cn1c(=O)[nH]cc(C(=O)N(C2CCCC2)C2CC2)c1=O | -2 | -2
CN(CC(=O)Nc1ccc(F)cc1)C(=O)c1nccnc1N | 10 | 6
N#Cc1ccccc1COC1C[C@](OCc2ccccc2F)(C(=O)NCc2ccco2)C[C@@H](O)[C@H]1O (stereo partly specified) | 1 | 8
O=C(Cc1ccccc1)N1CC(=O)N(C2CCC2)CC(O)C1 (stereo unspecified) | 6 | 15
COc1ccccc1N1CCN(c2nc(Nc3ccc(F)cc3)c3cn[nH]c3n2)CC1 | 2 | -1
CCOC(=O)C1C(=O)C=C(c2ccc(C)cc2)CC1c1ccc([N+](=O)[O-])cc1 (stereo unspecified) | 7 | 11
O=C(Cc1ccccc1)Nc1nnc(SCc2cccc(OC(F)(F)F)c2)s1 | 5 | 11
O=C(Nc1n[nH]c(-c2ccco2)n1)N1CC=C(c2ccccc2)CC1 | 7 | -1
Cc1ncc([N+](=O)[O-])n1CCNC(=O)c1ccc(C(=O)c2cccnc2)cc1 | -7 | -13
Cc1nn(-c2cc(N3CCCC3)ccc2[N+](=O)[O-])c(=O)c2ccccc12 | 16 | 12
O=C(C1CC=CCC1)N1CCC(n2c(-c3ccccc3)nc3ccc(F)cc32)CC1 (stereo unspecified) | 7 | -2
O=C(NC(c1ccccc1)c1ccc2ccccc2n1)C1CCN(C(=O)NC(c2ccccc2)c2ccccc2)CC1 (stereo unspecified) | 9 | -4

2 entries from above, with values under each structure:
Results follow in this order: NPYLR7 ag, NPYLR7 ag max-min
> O=C(C1CC=CCC1)N1CCC(n2c(-c3ccccc3)nc3ccc(F)cc32)CC1 (stereo unspecified)
→ 7, -2
> COc1ccc(-c2cc(C(F)(F)F)n3nc(C(=O)NCc4ccco4)cc3n2)cc1
→ 1, 0

Remaining list, next part.
SMILES | NPYLR7 ag | NPYLR7 ag max-min
Cc1cc(Br)ccc1NC(=O)CNC(=O)c1cc2ccc(F)cc2nc1C | -2 | -1
COCCN1C(=O)N(Cc2ccccc2)C2(CCN(Cc3cnn(-c4ccccc4)c3)CC2)C1=O | 11 | 0
CN(C)CCNC(=O)C1=CN2CCN(Cc3ccccc3)C(=O)N=C2O1 | 0 | 0
CCc1nnc(CNC(=O)c2[nH]c3ccccc3c2CC)s1 | 3 | -4
COc1ccc(Cc2nn3c(Cn4cnc5ccccc54)nnc3s2)cc1 | -1 | -7
COC(=O)c1ccc(C(=O)OC)c(NC(=O)c2cccn(OCc3cccc(C)c3)c2=O)c1 | 13 | 12
CC1C(=O)N(c2ccc(Cl)cc2)CCN1Cc1ccccc1F (stereo unspecified) | 2 | 14
O=C(Cc1ccccc1)NCCn1nc(-c2ccco2)ccc1=O | 4 | 1
CCOCCCN(CC(=O)N(Cc1ccc(F)cc1)Cc1ccco1)S(=O)(=O)c1ccc(NC(C)=O)cc1 | 1 | 7
C=C(C)C(O)(C(=C)C)c1ccc(CN(Cc2sccc2C)C2CC2)o1 | -3 | 4
CC1CCN(C(=O)C(C2CCCC2)N2CCN(C(=O)c3ccc(F)cc3)CC2)CC1 (stereo unspecified) | -9 | -4
CC(=O)Cn1c(=O)c2c(nc3n2CC(C)CN3c2ccc(Cl)cc2)n(C)c1=O (stereo unspecified) | 6 | 2
COc1ccc(C(=O)N(CC(=O)N(Cc2ccc3c(c2)OCO3)Cc2ccco2)CC2CCCO2)c(OC)c1 (stereo unspecified) | 3 | 16
CC(C)Cc1nnc(SCC(=O)O)n1-c1ccccc1Cl | 21 | 14
NCC1Cc2c(ccc3cc(-c4cnccn4)ccc23)O1 (stereo unspecified) | 20 | 10
O=C(Nc1ccc(N2CCCC2)c(C(=O)NCc2ccccc2)c1)Nc1ccccc1Br | 6 | 4
COc1ccc(C(C)=O)cc1CN1C(=O)C(C)Sc2ccc(C(C)=O)cc21 (stereo unspecified) | -3 | -5
Clc1ncnc2nc3n(c12)CCCCC3 | -9 | -15
O=C(CSc1nc2c(c(=O)n1-c1ccc(OC(F)(F)F)cc1)SCC2)N1CCOCC1 | 0 | -7
CCC(C)N(Cc1ccncc1)C(=O)CCc1ccc(F)c(F)c1 (stereo unspecified) | -2 | -4
CCC(CC)(CC(=O)OC)NCc1ccc(F)cc1 | 0 | -2
Cc1cc(C)n(CC(=O)Nc2cc(F)cc(F)c2)c(=O)c1C(N)=O | 10 | 3
Cc1cccc(NC(=O)c2cc(C(F)(F)F)cc(C(F)(F)F)c2)c1C(N)=O | 0 | 1
CC(C)NC(=O)C1CCN(C2CCN(Cc3cn[nH]c3-c3cccc(F)c3)CC2)CC1 | 6 | 3
CCCN(CCC)S(=O)(=O)c1ccc(C(=O)Nc2nc(C(=O)OCC)cs2)cc1 | 6 | 8
COc1cccc(C(=O)C2CCCN(Cc3cnn(-c4ccc(F)cc4)c3)C2)c1 (stereo unspecified) | 1 | -9
Cc1ccc(CN2CCNC(=O)C2CC(=O)NCc2ccc(N3CCCC3=O)cc2)cc1 (stereo unspecified) | 1 | 0
Cc1cc(C)c(S(=O)(=O)N2CCN(c3nc(C)nc(C)c3Cc3ccccc3Cl)CC2)c(C)c1 | 5 | 6
CCCn1c(C)c(C)n2c3c(=O)n(Cc4ccc(C)cc4)c(=O)n(C)c3nc12 | 8 | 14
Cc1cc(O)c(C(c2ccccc2)N2CCN(CCO)CC2)c(=O)n1Cc1ccccc1 (stereo unspecified) | -2 | -1
COc1ccc(-c2cc(C(=O)N3CCN(c4cccc(C(F)(F)F)c4)CC3)c(C)n2-c2ccccc2)cc1 | -3 | 1
CS(=O)(=O)Nc1cccc(NC(=O)c2csc(-c3cc4ccccc4[nH]3)n2)c1 | 5 | 3
Cc1ccc2nc(-c3cccc(Cl)c3)c(NC(=O)C(C)(C)C)n2c1 | -4 | -3
CC(C)c1cc(C(=O)NCc2cccnc2N2CCc3ccccc3C2)n[nH]1 | 0 | -2
OCC1CCCN(Cc2cc(Br)cc3c2OC(c2ccccc2)OC3)C1 (stereo unspecified) | 4 | 2
Cc1cc(C(=O)Nc2nnc(-c3cc(C)n(C)n3)o2)on1 | -9 | -16
CN(C(=O)CN1CCCC1Cc1cccc(F)c1)c1nccs1 (stereo unspecified) | 1 | -1
COc1ccc(Oc2cc(C(F)(F)F)nc(SCc3cccc(C)c3)n2)cc1 | 1 | 7
COCCN(Cc1nc2ccccc2o1)C(=O)C(C)Oc1ccccc1 (stereo unspecified) | 35 | 35
Cc1ccnc(SCc2cc(=O)c(OC(=O)c3cc(C(F)(F)F)cc(C(F)(F)F)c3)co2)n1 | -12 | -4
COc1cc(F)c(NC(=O)COCc2ccccc2)cc1OC | 9 | 6
Cc1cc(C)n(C)c(=O)c1C(=O)NCCOc1ccccc1F | -8 | -11
CCC1=NN(C(=O)c2ccccc2O)C(O)(C(F)(F)F)C1 (stereo unspecified) | -3 | -5
Cc1c(C(=O)NN2CC(=O)C(c3ccccc3)C2=N)nc2ccccn12 (stereo unspecified) | 3 | 1
COC(=O)c1ccc(OC(=O)c2cc3c(s2)CCCC3)cc1 | 0 | -1
COc1ccc(NC2CCCN(C(=O)/C=C/c3cccc(Cl)c3)C2)cc1OC (stereo unspecified) | 11 | 4
Cc1cccc(Cn2c(=O)c3c(nc4n(C5CCCC5)c(C)c(C)n34)n(C)c2=O)c1 | 1 | 0
Cc1nc2sccn2c(=O)c1NC(=O)c1ccccc1F | -4 | -5
Clc1ccc(-c2nccn2-c2ccc3n[nH]nc3c2)cc1 | 16 | 12
Cc1cccnc1NCCNC(=O)C1=NNC(=O)CC1 | 7 | 7
CCN(CC)c1ccc(C2C(C(=O)OC)=C(C)NC3=C2C(=O)CC(c2ccccc2)C3)cc1 (stereo unspecified) | 9 | 6
Cc1cc(C)c(C#N)c(SCCC#N)n1 | -3 | -4
COC(=O)c1ccc(C(=O)N(CCn2cccn2)c2nc3c(Cl)cccc3s2)cc1 | -14 | -23
CCOC(=O)c1cc(-c2ccccc2)nc2ccc(C)cc12 | -10 | -16
COc1cccc(CN2CCCn3cccc3C2c2ccccc2Cl)c1O (stereo unspecified) | 2 | 15
COc1ccc(C2CC(=O)C3C(=Nc4ccccc4NC3c3cccnc3)C2)cc1OC (stereo unspecified) | -2 | -5
Cc1nnc(SCC(=O)N2CCOCC2)c2c1cnn2-c1ccccc1 | -12 | -16
Cc1noc(C)c1CN(C)CC(=O)N(CCC(N)=O)c1ccc(F)cc1 | -1 | -2

Among those listed so far, 16 contain an aryl methoxy group.
SMILES | NPYLR7 ag | NPYLR7 ag max-min
COc1cccc(C(=O)Nc2c(C)nc3c(C)cccn3c2=O)c1OC | 6 | 1
COc1cc(NCCc2csc(-c3ccncc3)n2)ncn1 | -1 | -1
COc1ccc(OCC(=O)NCCc2ccc(C(F)(F)F)cc2)cc1 | 0 | 7
COc1ccc(-c2cc(C(F)(F)F)n3nc(C(=O)NCc4ccco4)cc3n2)cc1 | 1 | 0
COc1ccc(NC(=O)N(CC(=O)Nc2cc(-c3ccccc3)nn2-c2ccc(C)cc2C)CC(C)C)c(OC)c1 | -3 | -1
COc1ccccc1N1CCN(c2nc(Nc3ccc(F)cc3)c3cn[nH]c3n2)CC1 | 2 | -1
COc1ccc(Cc2nn3c(Cn4cnc5ccccc54)nnc3s2)cc1 | -1 | -7
COc1ccc(C(=O)N(CC(=O)N(Cc2ccc3c(c2)OCO3)Cc2ccco2)CC2CCCO2)c(OC)c1 (stereo unspecified) | 3 | 16
COc1ccc(C(C)=O)cc1CN1C(=O)C(C)Sc2ccc(C(C)=O)cc21 (stereo unspecified) | -3 | -5
COc1cccc(C(=O)C2CCCN(Cc3cnn(-c4ccc(F)cc4)c3)C2)c1 (stereo unspecified) | 1 | -9
COc1ccc(-c2cc(C(=O)N3CCN(c4cccc(C(F)(F)F)c4)CC3)c(C)n2-c2ccccc2)cc1 | -3 | 1
COc1ccc(Oc2cc(C(F)(F)F)nc(SCc3cccc(C)c3)n2)cc1 | 1 | 7
COc1cc(F)c(NC(=O)COCc2ccccc2)cc1OC | 9 | 6
COc1ccc(NC2CCCN(C(=O)/C=C/c3cccc(Cl)c3)C2)cc1OC (stereo unspecified) | 11 | 4
COc1cccc(CN2CCCn3cccc3C2c2ccccc2Cl)c1O (stereo unspecified) | 2 | 15
COc1ccc(C2CC(=O)C3C(=Nc4ccccc4NC3c3cccnc3)C2)cc1OC (stereo unspecified) | -2 | -5
